Mtb growth – Mycobacterium tuberculosis H37Rv growth inhibition, cell based, confirmatory dose response (AID 1949). most inactive calls were filed without a number and no value below 0 was filed. inhibition, % at 10 µg/mL, or IC50 in µg/mL where a hit was titrated. 100,000 compounds, 1.6% hits;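 active means confirmed in a dose series; inconclusive means about 50% or more but not retested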;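 further: bacteria grown 7 days with compound before Alamar blue readout; 0% = untreated bacteria and 100% = reference antibiotic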
Starred values were filed as active, the others as inactive; i = inactive; ? = inconclusive. These rows are one share of the data. The share of hits here may be higher or lower than overall.

| SMILES | Mtb growth |
| --- | --- |
| CCC(Sc1nc2ccccc2s1)C(=O)Nc1ccc(C(C)=O)cc1 (stereo not given) | i |
| Cc1ccc(-n2c(=O)c3c(n4cnnc24)-c2ccccc2CC32CCCCC2)cc1 | i |
| COc1ccc(NC(=O)c2cc(Cl)cc(Cl)c2NC(=O)c2ccc(Cl)cc2Cl)cc1 | 3% |
| CCOC(=O)c1sc(NC(=O)c2cccnc2)c(C(=O)OC)c1C | i |
| Cc1cc(F)ccc1NC(=O)c1c(C)noc1C | i |
| CCc1cc2c(C)cc(=O)oc2cc1OC(=O)CCNS(=O)(=O)c1ccc(C)cc1 | i |
| CCc1ccc(N(CC(=O)NCc2ccccn2)S(C)(=O)=O)cc1 | i |
| CCN(CC)C(=O)c1ccc(Cl)c(F)c1F | i |
| CCOC(=O)CSc1nc2nc(C)c(Br)c(=O)n2[nH]1 | i |
| CCOc1ccc(NC(=O)CSc2ccccc2N)cc1 | i |
| O=C(Nc1ccc(I)cc1C(=O)N1CCCC1)c1ccco1 | i |
| COc1ccc(S(=O)(=O)Nc2ccc(C(C)C)cc2)cc1C | i |
| CCOc1ccc(N2C(=O)CC(Sc3nc(C)cc(C)n3)C2=O)cc1 (stereo not given) | i |
| CCn1c(COc2ccc(C(C)C)cc2)nnc1SCC(=O)NC1CCCCC1 | i |
| N#C/C(=C\c1cccs1)c1nc(-c2ccc(Br)cc2)cs1 | i |
| Cc1nc2ccc(NC(=O)N(C(C)C)C(C)C)cc2s1 | 7% |
| CC(=O)N1N=C(c2ccc(C)cc2)CC1c1ccco1 (stereo not given) | 6% |
| COCCCNc1ncnc(N)c1[N+](=O)[O-] | 0% |
| CCCN(CCC)CCOCCOc1ccccc1C(C)(C)C | i |
| NC(=O)c1c(NC(=O)c2ccc(-c3ccc(Br)cc3)o2)sc2c1CCCC2 | 1% |
| O=C(Nc1ccccc1C(=O)Nc1cccnc1)c1ccccc1 | i |
| Cc1sc2ncnc(NCCC(=O)O)c2c1C | i |
| O=Cc1cn(CCC(=O)O)nc1-c1ccccc1 | i |
| COC(=O)CNC(=O)c1cc(-c2ccncc2)nc2c(C)c(Cl)ccc12 | i |
| Cc1ccc(C(=O)CSc2nc3ccccc3c(=O)n2-c2ccccc2)s1 | 3% |
| O=C(CSc1n[nH]c(-c2ccc(Cl)cc2Cl)n1)NCc1ccccc1 | i |
| COC(=O)C1=C(C)NC(S)=C(C#N)C1c1cccs1 (stereo not given) | i |
| Nc1nc(SCC(=O)N2CCOCC2)n[nH]1 | i |
| COC(=O)c1ccc(N2C(=O)CC(SCC(=O)Nc3ccc(Br)cc3)C2=O)cc1 (stereo not given) | i |
| COC(=O)c1ccccc1NC(=O)CSc1nc2ncccc2[nH]1 | i |
| CC1CCCC(N2CCN(Cc3ccccn3)CC2)C1 (stereo not given) | i |
| Cc1ccc(Cn2c(=O)[nH]c3ccccc32)cc1 | i |
| CCOC(=O)C1CCN(C(=O)Cc2ccc(Cl)cc2)CC1 | i |
| O=C(O)CSCC(NC(=O)c1ccccc1)C(=O)O (stereo not given) | i |
| O=[N+]([O-])c1ccc2c(c1)COc1ccccc1O2 | i |
| S=C(Nc1ccccc1)N1CCCCC1 | i |

The list goes on, overlapping the part above by 4 compounds.
| SMILES | Mtb growth |
| --- | --- |
| CCOC(=O)C1CCN(C(=O)Cc2ccc(Cl)cc2)CC1 | i |
| O=C(O)CSCC(NC(=O)c1ccccc1)C(=O)O (stereo not given) | i |
| O=[N+]([O-])c1ccc2c(c1)COc1ccccc1O2 | i |
| S=C(Nc1ccccc1)N1CCCCC1 | i |
| CCOC(=O)c1cc(Cc2ccccc2)sc1NC(=S)Nc1cc([N+](=O)[O-])ccc1OC | i |
| Cc1cc(Cl)c(OCCOCCNC(C)(C)C)c(Br)c1 | i |
| COc1ccc(-c2cc(C(=O)OCc3ccc(C(C)=O)cc3)c3ccccc3n2)cc1 | i |
| COc1ccccc1C(=O)Nc1ccccc1Sc1ccccc1 | 15% |
| CCCC(=O)N(c1ccc(C(=O)O)cc1)c1nc(-c2ccccc2)c(C)s1 | i |
| Cc1cc(=O)oc2cc(OCc3c(F)cccc3Cl)c(Cl)cc12 | i |
| O=C1CC(SC(=NCCc2ccccc2)Nc2cccc(Cl)c2)C(=O)N1c1ccc(F)cc1 (stereo not given) | i |
| Cn1c(SCC(=O)Nc2ccc(Br)cc2)nnc1-c1cccnc1 | i |
| O=C(NCCOc1ccccc1-c1ccccc1)c1ccccc1I | i |
| CCOc1ccc(C(=O)NC(=S)Nc2ccc(N3CCN(C(=O)c4ccc(C)cc4)CC3)cc2)cc1[N+](=O)[O-] | 28% |
| CC(=O)c1ccc(NC(=O)CCC2CCCCC2)cc1 | i |
| CN(C)c1ccc(C2CC(c3ccc(Cl)cc3)=NN2S(C)(=O)=O)cc1 (stereo not given) | i |
| O=C(c1ccccc1)N1CCn2c1nc1ccccc12 | i |
| O=c1[nH]c2c(c(=O)[nH]1)C(c1ccccc1)c1c(ccc3ccccc13)N2 (stereo not given) | 3% |
| CCCCn1c2ccccc2c2nnc(SC(CC)C(=O)Nc3ccccc3OC)nc21 (stereo not given) | i |
| Cc1cc(Cl)c(OCCN2CCCC2)c(Br)c1 | 4% |
| O=c1cc(/C=C/c2ccco2)[nH]c2ccccc12 | i |
| CCOc1ccc(NC(=O)CN(c2ccccc2F)S(C)(=O)=O)cc1 | i |
| COc1ccc(C(=O)Nc2cccc(C(=O)N3CCCCC3)c2)cc1 | i |
| Cc1ccc(NC(=O)N2CCCCC2C)cc1 (stereo not given) | i |
| CCOC(=O)C1(CC)CC(C)(c2csc(Nc3ccc(C)cc3)n2)OC1=O (stereo not given) | 3% |
| CC(C)c1ccc(OCC(=O)Nc2ccccc2F)c(Br)c1 | 16% |
| Cc1cc(=O)oc2cc(OCCSc3nnc(-c4ccccc4)o3)ccc12 | 1% |
| COc1ccc(NC(=S)NCCc2ccc(OC)c(OC)c2)cc1 | i |
| CCOC(=O)NCc1ccc(OC)cc1 | i |
| O=C1CC(N2CCN(c3nc4ccccc4s3)CC2)C(=O)N1c1ccc(F)cc1 (stereo not given) | i |
| CCCCNCCCOc1ccc(C)cc1Br | i |
| COc1ccc(NCC(=O)Nc2ccc(Cl)cc2C)c(OC)c1 | 28% |
| O=C(CCN1C(=O)c2ccccc2C1=O)Oc1ccc2ccccc2c1 | 42% |
| Cc1cc(Cl)ccc1OCc1nc(-c2ccc(O)cc2)n[nH]1 | 2% |
| NC(=O)Cn1c(CCCCc2nc3ccccc3n2CC(N)=O)nc2ccccc21 | i |
| O=C(Nc1ccccc1)c1cc([N+](=O)[O-])ccc1N1CCNCC1 | i |
| CCCc1cc(=O)[nH]c(/N=C(\N)Nc2cccc(C)c2)n1 | 8% |
| Cc1[nH]c2ccccc2c1/C=C/c1nc2ccccc2c(=O)n1CCO | ? |
| COc1c(C)cc(Br)cc1C(=O)Nc1cc(-c2nc3ncccc3o2)ccc1C | i |
| CCc1nnc(SCc2ccc(OC)c(Br)c2)n1N | i |
| CC(C)OC(=O)c1cc2cc(Br)ccc2oc1=O | i |
| CS(=O)(=O)N1CCc2ccccc2C1 | i |
| CCN(CC)Cc1c(O)ccc2c(C)c(C)c(=O)oc12 | 2% |
| COc1ccc(N(CC(=O)NC2CCCCCC2)S(C)(=O)=O)cc1Cl | 1% |
| O=C(NC1CC2CCC1C2)c1ccc(Cl)c(S(=O)(=O)Nc2ccccc2)c1 (stereo not given) | i |
| CC(C)c1ccc(C(=O)Nc2cccc(Br)c2)cc1 | i |
| CCOC(=O)c1cc2c(=O)n3ccccc3nc2n(C)c1=NC(=O)c1ccco1 | i |
| COCCNC(=O)C1CCCN(S(=O)(=O)c2ccccc2)C1 (stereo not given) | i |
| Cc1ccc2oc(-c3ccc(NC(=O)c4ccccc4F)cc3)nc2c1 | i |
| O=c1c2ccccc2ncn1CCOc1ccc(Cl)cc1Br | i |
| NC(CC(=O)O)c1cccc(Br)c1 (stereo not given) | i |
| Cc1sc(NC(=O)c2ccccc2)c(C#N)c1-c1ccccc1 | i |
| COc1cccc(-c2nnc(SCC(=O)NC(C)c3ccccc3)n2-c2ccccc2)c1 (stereo not given) | i |
| CC12CCC(C(=O)Nc3ccc4c(c3)OCO4)(C(=O)C1=O)C2(C)C (stereo not given) | i |
| Cn1c(SCC(=O)Nc2c(Cl)cc(Cl)cc2Cl)nnc1-c1ccc(Cl)cc1 | 3% |
| COC(=O)COc1ccc2c(=O)c(-c3ccc(Cl)cc3)coc2c1 | 0.99µg/mL* |
| COC(=O)c1sc(NC(=O)c2ccc(Br)o2)c(C(=O)OC)c1C | i |
| O=C(NCCCN1CCCC1=O)Nc1ccc([N+](=O)[O-])cc1 | i |
| C=CCN(c1ccc(C(=O)Nc2ccccc2C(=O)NCCc2ccccc2)cc1)S(C)(=O)=O | i |
| CC(C)OC(=O)c1cccc(NC(=O)CSc2nncn2C)c1 | i |
| O=c1c2ccccc2nc(SCc2ccc(Cl)c(Cl)c2)n1-c1ccccc1 | 2% |
| CCS(=O)(=O)Nc1cc([N+](=O)[O-])ccc1OC | i |
| CC(C)CC(C(=O)N1CCCCC1)N1C(=O)c2cc(Cl)c(Cl)cc2C1=O (stereo not given) | i |
| CC(C)C1Cc2c(sc3[nH]c(=S)[nH]c(=S)c23)CO1 (stereo not given) | i |

(list continues)
| SMILES | Mtb growth |
| --- | --- |
| O=C(Nc1ccccc1)c1ccccc1OCc1cccc2ccccc12 | i |
| COc1ccc(N2CCN(C(=O)COc3ccc(C(C)(C)C)cc3)CC2)cc1 | 1% |
| N#C/C(=C\c1cccc(Cl)c1)c1nn(-c2ccccc2)c(N)c1C#N | 1% |
| CCCC(=O)Nc1ccc(C(=O)Nc2ccc(Cl)cc2Cl)cc1 | 8% |
| O=C(Nc1nc(-c2ccc(S(=O)(=O)N3CCOCC3)cc2)cs1)c1cccs1 | 5% |
| Cc1cc(-c2cccs2)c(C#N)c(SCC(=O)NC(C)C23CC4CC(CC(C4)C2)C3)n1 (stereo not given) | 6% |
| N#C/C(=C/c1ccco1)c1cccc([N+](=O)[O-])c1 | i |
| COc1ccc(Br)cc1/C=N/NC(=O)c1ccc(CN2CCOCC2)cc1 | i |
| CC(C(=O)Nc1cc(Cl)ccc1O)N1C(=O)c2ccccc2C1=O (stereo not given) | i |
| Fc1ccc(C(=S)N2CCN(c3ccc(F)cc3)CC2)cc1 | i |
| Cc1cc(C(=O)NCc2cccs2)cs1 | 2% |
| COc1ccc(OC)c(CN2CCN(C(=O)c3ccncc3)CC2)c1 | 0% |

Looked up above:
Mtb growth, `CCCC(=O)Nc1ccc(C(=O)Nc2ccc(Cl)cc2Cl)cc1` stands at 8%
Mtb growth, `O=C(Nc1nc(-c2ccc(S(=O)(=O)N3CCOCC3)cc2)cs1)c1cccs1` stands at 5%

More records.
| SMILES | Mtb growth |
| --- | --- |
| O=C(Nc1ccc(F)cc1)C1CC(=O)n2cnnc2N1 (stereo not given) | i |
| CCCC(=O)N1CCN(c2ccc(NC(=S)NC(=O)c3ccc4ccccc4c3)cc2)CC1 | i |
| COC(=O)c1cc(NC(=O)CSc2nnc(Cc3ccc(OC)cc3)n2C)ccc1Cl | i |
| c1ccc2c(c1)N1CCN=C1N2CCN1CCCCC1 | i |
| CCOC(=O)c1ccc(NC(=O)C2CCN(S(=O)(=O)c3ccc(F)cc3)CC2)cc1 | i |
| CCC(=O)Oc1ccc(C(=O)Nc2ccc(OCC(=O)OC)cc2)cc1 | i |
| O=C(Nc1ccc(S(=O)(=O)NCCC2=CCCCC2)cc1)N1CCCCC1 | i |
| COc1cc(C)c(C)cc1S(=O)(=O)N1CCN(c2ccc(C)cc2C)CC1 | 5% |
| O=C(c1ccco1)N1N=C(c2cccs2)CC1c1ccc(F)cc1 (stereo not given) | 2% |
| Nc1ccc(Cl)c(NC(=O)CC(=O)c2ccccc2)c1 | i |
| CN(c1ccc(C(=O)Nc2ccccc2C(F)(F)F)cc1)S(C)(=O)=O | i |
| COc1ccc(NC(=O)c2c(NC(=O)CNCc3ccco3)sc3c2CCC3)c(OC)c1 | i |
| Cc1ccc(-c2cc(C(=O)Nc3c(F)c(F)c(F)c(F)c3F)c3ccccc3n2)s1 | i |
| O=C(NCCc1cccc(Cl)c1)c1cc2ccccc2oc1=O | i |
| Cc1ccc(N2CC(C(=O)NCc3ccccn3)CC2=O)cc1 (stereo not given) | i |
| COC(=O)c1ccc(C)c(NC(=O)C(C)Oc2ccccc2)c1 (stereo not given) | i |
| OCCN1CCN(C(=S)Nc2ccc(Nc3ccccc3)cc2)CC1 | i |
| Cc1ccccc1C(=O)N(Cc1ccccc1)C(C)(C)C | i |
| COC(=O)c1ccc(C)c(NC(=O)c2ccc(N(Cc3ccccc3C)S(C)(=O)=O)cc2)c1 | i |
| Cc1ccc(C(=O)N2CCC(C)CC2)cc1I | i |
| O=C(CCC1COc2ccccc2O1)N1CCCC1 (stereo not given) | i |
| CC(C)n1c(NCc2cc(Cl)cc(Cl)c2O)nc2ccccc21 | 2% |
| Cc1cccc(C(=O)N2CCN(S(=O)(=O)N3CCCCCC3)CC2)c1 | i |
| COC(=O)c1c(NC(=S)Nc2cc(C(C)(C)C)ccc2OC)sc(C)c1C | i |

The list goes on, starting with the last 3 of the part before.
| SMILES | Mtb growth |
| --- | --- |
| CC(C)n1c(NCc2cc(Cl)cc(Cl)c2O)nc2ccccc21 | 2% |
| Cc1cccc(C(=O)N2CCN(S(=O)(=O)N3CCCCCC3)CC2)c1 | i |
| COC(=O)c1c(NC(=S)Nc2cc(C(C)(C)C)ccc2OC)sc(C)c1C | i |
| CCOC(=O)c1cnn2c(C(F)(F)F)cc(-c3cccs3)nc12 | i |
| CCOC(=O)c1ccc(NC(=O)Nc2cccc([N+](=O)[O-])c2C)cc1 | i |
| CCn1c(SCC(=O)Nc2cccc(Cl)c2C)nnc1-c1ccncc1 | i |
| CC(C)c1ccc(OCC(=O)Nc2cccc(Cl)c2Cl)c(Br)c1 | i |
| COc1cc(NC(=O)c2cc(I)ccc2Cl)ccc1NC(=O)C(C)C | 7% |
| CCC(C)c1ccccc1NC(=O)c1ccc(Cl)cc1 (stereo not given) | i |
| O=S(=O)(NCc1ccco1)c1c(Cl)cccc1Cl | i |
| CCOC(=O)c1cc(NC(=O)N(C(C)C)C(C)C)c(C)nc1C | i |
| CCOC(=O)c1ccc(NC(=O)CN2CCc3ccccc3C2)cc1 | i |

Assay outcomes (PubChem)
